Mtb growth: Mycobacterium tuberculosis H37Rv growth inhibition, cell based, confirmatory dose response (AID 1949); most inactive calls were filed without a number and no value below 0 was filed; inhibition, % at 10 µg/mL, or IC50 in µg/mL where a hit was titrated; actives 1.6% (n = 100,000);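 active = confirmed in a dose series; inconclusive = about 50% or more but not retested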;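 note: bacteria grown 7 days with compound before Alamar blue readout; 0% = untreated bacteria and 100% = reference antibiotic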
Numbers without * were called inactive; i = inactive; u = inconclusive. Only part of the results is shown. The share of hits here may be higher or lower than overall.

SMILES	Mtb growth
CCc1ccc(N(CC(=O)Nc2ccccc2C(=O)N2CCCC2)S(C)(=O)=O)cc1	i
CCOC(=O)c1cc(-c2ccccc2)sc1NC(=O)C1CC1	i
Cc1cc(C)n2c(SCC(C)C)nnc2n1	i
COC(=O)c1sc2nc(C)cc(C(F)(F)F)c2c1N	i
CCN(CC)CC(=O)Nc1cccc(Br)c1	i
Nc1ncnc(N(CCO)CCO)c1[N+](=O)[O-]	i
Cc1cc(C(=O)Nc2ccon2)cs1	i
Cc1ccc(NS(=O)(=O)c2cccc(Cl)c2)cc1	2.9%
CCC(=O)N1CCN(c2ccc(NC(=O)COc3ccc(Br)cc3)cc2)CC1	1.7%
O=C(c1cccs1)N1N=C(c2ccc(O)cc2)CC1c1ccco1 (stereo not drawn)	1.0%
CCOC(=O)c1c(NC(=O)CC)sc(C(N)=O)c1C	i
COCC(=O)Nc1nnc(Cc2ccc(Cl)cc2)s1	2.0%
Cc1ccc(C)c(NC2=NS(=O)(=O)c3ccccc32)c1	i
O=C(CSc1ccc(Cl)cc1)Nc1ccc2c3c(cccc13)CC2	i
CCCCOCCCNC(=O)COc1ccccc1	i
C=CCn1c(SCC(=O)Nc2nc3ccccc3s2)nnc1C(NC(=O)c1ccccc1)C(C)C (stereo not drawn)	i
CCOC(=O)c1ccc2nc(NC(=O)CSc3nc4ccccc4o3)sc2c1	i
COC(=O)c1ccc(Cl)c(NC(=O)CN2CCc3ccccc3C2)c1	i
CCOc1ccccc1-c1csc(NC(=O)CC(C)(C)C)n1	1.4%
CCOc1ccc(NC(=O)CSc2nnc(C(NC(=O)c3ccc(F)cc3)C(C)C)n2C)cc1 (stereo not drawn)	i
Cc1cc(C)n(S(=O)(=O)N2CCOCC2)n1	i
Cc1ccccc1NC(=O)CN(c1cc(Cl)ccc1Cl)S(C)(=O)=O	i
CCOCCOC(=O)c1ccc(NC(=O)c2ccc(-c3ccccc3)cc2)cc1	i
CCOC(=O)Cc1csc(NC(=O)CCSc2ccccc2)n1	i
COc1ccccc1NC(=O)C(C)NS(=O)(=O)c1cc(Cl)ccc1Cl (stereo not drawn)	i
O=[N+]([O-])c1cc(CN2CCC(c3ccccc3)C2)c(O)c2ncccc12 (stereo not drawn)	u
OC(COc1ccccc1Br)CN1CCN(C(c2ccccc2)c2ccccc2)CC1 (stereo not drawn)	5.33µg/mL*
Cc1ccnc(NC(=O)c2ccco2)n1	i
N#C/C(=C\c1ccc(-c2ccccc2)o1)C(=O)Nc1cccc(Cl)c1	i
COC(=O)Cc1c(C)c2cc(Cl)c(OC(C)C)cc2oc1=O	0.6%

Quoted at random: 10 entries already listed, in no set order.
SMILES	Mtb growth
C=CCn1c(SCC(=O)Nc2nc3ccccc3s2)nnc1C(NC(=O)c1ccccc1)C(C)C (stereo not drawn)	i
CCOC(=O)c1ccc2nc(NC(=O)CSc3nc4ccccc4o3)sc2c1	i
Cc1cc(C)n(S(=O)(=O)N2CCOCC2)n1	i
OC(COc1ccccc1Br)CN1CCN(C(c2ccccc2)c2ccccc2)CC1 (stereo not drawn)	5.33µg/mL*
O=[N+]([O-])c1cc(CN2CCC(c3ccccc3)C2)c(O)c2ncccc12 (stereo not drawn)	u
CCOc1ccccc1-c1csc(NC(=O)CC(C)(C)C)n1	1.4%
Cc1ccccc1NC(=O)CN(c1cc(Cl)ccc1Cl)S(C)(=O)=O	i
COc1ccccc1NC(=O)C(C)NS(=O)(=O)c1cc(Cl)ccc1Cl (stereo not drawn)	i
CCOCCOC(=O)c1ccc(NC(=O)c2ccc(-c3ccccc3)cc2)cc1	i
CCOC(=O)Cc1csc(NC(=O)CCSc2ccccc2)n1	i

(more compounds)
SMILES	Mtb growth
O=C(C1CCCO1)N1CCN(C(=S)NC2CCCC2)CC1 (stereo not drawn)	i
COc1ccc(C2(C(=O)N3CCCC3)CCOCC2)cc1	i
O=C(CSCc1c(Cl)cccc1Cl)Nc1ccc2c(c1)C(=O)N(CC1CCCO1)C2=O (stereo not drawn)	0.2%
Cc1cc(=O)n(Cc2ccccc2Cl)c(O)c1C#N	i
COC(=O)c1ccccc1OCCCCOc1cccc2ccc(C)nc12	i
CC(CCc1ccccc1)Nc1cc(N2CCNCC2)ccc1[N+](=O)[O-] (stereo not drawn)	i
COc1ccc(-c2nc3ccc(N)cc3[nH]2)cc1	i
COC(=O)c1cc2ccccc2c([N+](=O)[O-])c1O	i
O=[N+]([O-])c1cccc(S(=O)(=O)Nc2ccc(Br)cc2F)c1	i
COc1ccc(OC)c(S(=O)(=O)N2CCN(c3cccc(C(F)(F)F)c3)CC2)c1	i
N/C(=N\OC(=O)COc1ccc(Cl)cc1Cl)c1ccncc1	7.7%
O=C(CCSc1ccccc1)Nc1cccc([N+](=O)[O-])c1	i
Cc1ccc(C(=O)N2CCSCC2)cc1	i
COc1cc(C)c(S(=O)(=O)N2CCN(c3ccc(C)cc3C)CC2)cc1C	i
CCOc1ccccc1NC(=O)C(CC)Oc1ccccc1 (stereo not drawn)	3.6%
Cc1ccc(NC(=O)C(C)Sc2nnc(C)s2)cc1 (stereo not drawn)	i
CN(C)C(=O)Oc1ccc(Br)c2ccccc12	6.4%
CCN(CC)S(=O)(=O)c1ccc(NS(=O)(=O)c2ccc(OC)cc2)cc1	i
N#Cc1ccccc1CSc1nc2ccc(NC(=O)c3ccccc3F)cc2s1	i
COC(=O)Cc1ccc(NC(=O)c2ccccc2-c2ccccc2C(=O)O)cc1	i
Cn1cnnc1SCC(=O)Nc1ccc(S(=O)(=O)Nc2nccs2)cc1	i
Cc1cc(NS(=O)(=O)c2ccc(Br)s2)no1	i
COc1ccccc1NC(=O)CSCc1ccc(Cl)cc1	i
Cc1cc(I)cc(C)c1NC(=O)CSc1nnc(CNC(=O)c2cccc([N+](=O)[O-])c2)n1C	i
Cc1cc(C)n(C(=O)CCCN2C(=O)c3cccc4cccc(c34)C2=O)n1	i
O=C(Nc1cccc(F)c1)c1sc2cc(Cl)ccc2c1Cl	i
Cn1c(=O)c2ncn(CC(=O)Nc3ccccc3O)c2n(C)c1=O	i
COc1ccc(C(=O)Nc2ccc(C(=O)N3CCOCC3)cc2)cc1OC	i
CC1CN(C(=O)c2cccc(F)c2)CC(C)O1 (stereo not drawn)	i
Cc1cc(OCC(=O)Nc2ccncc2)c(C)cc1Br	i
CCOc1ccc(C(=O)Nc2nccs2)cc1	i
CC(=O)NC(=S)Nc1ccc(S(=O)(=O)N2CCc3ccccc32)cc1	i
COC(=O)c1ccccc1NC(=O)c1ccc(S(=O)(=O)N2CCCC2)cc1	i
Cc1cc(C)cc(OCC(=O)NC(=S)Nc2ccc(C(=O)O)cc2)c1	i
COCC(=O)NCCc1ccc(S(N)(=O)=O)cc1	i
CCOc1ccc(NC(=O)c2ccc(CNS(=O)(=O)c3cccc(Cl)c3)cc2)cc1	i
O=C(Nn1cnnc1)c1cccc(Cl)c1Cl	i
Cc1ccc(NC(=S)N2CCN(CCO)CC2)c(C)c1	0.6%
COc1ccc(CCNC(=O)c2ccc(CSc3ccc(Cl)cc3)cc2)cc1	i
c1cnc2c(SCCN3CCOCC3)cccc2c1	i
COC(=O)c1ccc(C)c(NC(=S)Nc2cc(OC)ccc2OC)c1	i
c1ccc(-c2nnc(OCC3CCCO3)c3ccccc23)cc1 (stereo not drawn)	i
Cc1ccc(Cl)cc1N1CCN(S(=O)(=O)c2cc(C(C)C)ccc2C)CC1	15.3%
CC(C)NC(=O)C12CCC(C)(C(=O)O1)C2(C)C (stereo not drawn)	i
CCCC1C(C#N)=C(N)Oc2n[nH]c(C(C)C)c21 (stereo not drawn)	1.2%
C=CCn1c(SCC(=O)Nc2ccc(C(=O)OCC)cc2)nc2sc(C)c(C)c2c1=O	i
COc1ccc(S(=O)(=O)Nc2cccc(C(C)=O)c2)cc1	i
O=C(c1ccc2c(c1)OCO2)N1CCN(S(=O)(=O)c2cccs2)CC1	i
O=C(COc1ccc2oc3c(c2c1)CCCC3)NCCN1CCOCC1	i
Cc1occc1C(=O)N1CCN(c2cccc(Cl)c2)CC1	0.8%
Clc1ccc(OCCSc2ncccn2)c(Br)c1	4.2%
COc1ccc(-c2noc(Cc3ccc(Cl)cc3)n2)cc1	i
CC(C)c1nnc(NC(=O)CC(C)c2ccccc2)s1 (stereo not drawn)	i
CCOC(=O)N1CCN(CCC(=O)Nc2cccc(OC)c2)CC1	i
Cc1n[nH]c(C)c1Sc1n[nH]c(=O)[nH]c1=O	i
CC1CCC(NC(=O)C(=O)Nc2ccc(C#N)cc2)CC1 (stereo not drawn)	0.7%
CCN(CC)c1ccc(NC(=O)C2CCCN2S(=O)(=O)c2ccc3ccccc3c2)c(C)c1 (stereo not drawn)	9.4%
CCOC(=O)c1cc(NC(=O)Nc2ccc(OC)c(OC)c2)c(C)nc1C	i
O=c1c2cc(I)ccc2nc(/C=C/c2ccccn2)n1Cc1ccccc1	i
CCCC1CCc2c(sc(N)c2C#N)C1 (stereo not drawn)	0.6%

Nine successive entries already listed:
SMILES	Mtb growth
CCOc1ccc(C(=O)Nc2nccs2)cc1	i
CC(=O)NC(=S)Nc1ccc(S(=O)(=O)N2CCc3ccccc32)cc1	i
COC(=O)c1ccccc1NC(=O)c1ccc(S(=O)(=O)N2CCCC2)cc1	i
Cc1cc(C)cc(OCC(=O)NC(=S)Nc2ccc(C(=O)O)cc2)c1	i
COCC(=O)NCCc1ccc(S(N)(=O)=O)cc1	i
CCOc1ccc(NC(=O)c2ccc(CNS(=O)(=O)c3cccc(Cl)c3)cc2)cc1	i
O=C(Nn1cnnc1)c1cccc(Cl)c1Cl	i
Cc1ccc(NC(=S)N2CCN(CCO)CC2)c(C)c1	0.6%
COc1ccc(CCNC(=O)c2ccc(CSc3ccc(Cl)cc3)cc2)cc1	i

(next part)
SMILES	Mtb growth
Cc1ccc(C(=O)CSc2nc(C)cc(C)c2C(N)=O)cc1	u
O=C(NCCc1ccccc1)Nc1cccc2ccccc12	i
CCOC(=O)C1CCN(C(=O)CCC2CCCC2)CC1	i
COc1c(C)cccc1C(=O)NC(=S)Nc1ccc(-c2nc3ncccc3o2)cc1C	i
Cc1cc(C)c(C)c(S(=O)(=O)N2CCC(C(N)=O)(N3CCCCC3)CC2)c1C	i
C=CCNC(=O)COc1ccc([N+](=O)[O-])cc1	i
Fc1ccccc1CSCc1nc2ccccc2[nH]1	1.6%
CCOc1ccc(NC(=O)c2ccc(C)c(Br)c2)cc1	i
COC(=O)C1=C(C)NC2=C(C(=O)c3ccccc32)C1c1ccccc1Br (stereo not drawn)	i
COc1ccc(CCNC(=O)C(=O)NCCCOC(C)C)cc1	i
CCSc1ccccc1C(=O)NC(C)CCc1ccccc1 (stereo not drawn)	i
COc1ccc(Cl)cc1C1NC(=S)NC(c2ccccc2)=C1C(=O)Nc1ccc(C)cc1 (stereo not drawn)	0.4%
CCOc1ccc(NC(=O)CCc2ccc(S(=O)(=O)NCc3ccccc3)cc2)cc1	i
O=C(COc1ccc2c(C(F)(F)F)cc(=O)oc2c1)c1ccc(F)cc1	0.6%
COCc1cc(C)nc2sc(C(=O)Nc3ccc(Cl)cc3)c(N)c12	i
COC(=O)CSc1nnc(-c2ccc3c(c2)OCO3)n1C	i
O=C(NC(=S)Nc1cccc(C(F)(F)F)c1)c1cccs1	2.39µg/mL*
COc1ccc(NC(=S)NC2CCN(C(C)C)CC2)c(OC)c1	i
COc1ccc(NC(C)=O)cc1CNC(=O)CSc1nnc(-c2ccco2)o1	i
COc1ccc(C(=O)n2nc(-c3ccccc3)nc2N)cc1OC	3.2%
CC(C)NC(=O)c1ccccc1NC(=O)c1cccs1	i
COc1ccc(Cl)cc1NC(=O)C1CCN(C(=O)c2cc(OC)c(OC)c(OC)c2)CC1	1.4%
O=C(O)c1ccccc1NS(=O)(=O)c1ccc2[nH]c(=O)[nH]c2c1	0.1%
O=C(CSc1n[nH]c(-c2ccc(Cl)cc2Cl)n1)Nc1ccccn1	i
CCCCn1c2ccccc2c2nnc(SC(CC)C(=O)Nc3ccc(NC(C)=O)cc3)nc21 (stereo not drawn)	i
O=C(O)C1CCCCC1C(=O)NCc1cccnc1 (stereo not drawn)	i
COc1nc(Nc2ccc(-c3nc4ccccc4o3)cc2)nc(N2CCOCC2)n1	i
O=C(CSc1nnc(SCc2ccc(Cl)cc2)s1)N1CCc2ccccc2C1	2.0%
Cc1cc(C)c(OCCOCCN2CCNCC2)c(Cl)c1	i
COc1cccc(CNc2nc3ccccc3n2CCN2CCOCC2)c1O	i
CC(=O)Nc1ccc(N2C(=O)CC(N3CCN(Cc4ccc5c(c4)OCO5)CC3)C2=O)cc1 (stereo not drawn)	i
O=C1CC(N2CCc3ccccc3C2)C(=O)N1c1ccc(Oc2ccccc2)cc1 (stereo not drawn)	i
O=C(c1ccc(S(=O)(=O)N2CCCC2)cc1)N1CCN(C(c2ccccc2)c2ccccc2)CC1	i
CC1CCN(c2ccccc2NC(=O)c2ccc(Br)o2)CC1	3.8%
O=C(Nc1nnc(C2CC2)s1)c1ccc(S(=O)(=O)c2ccccc2)cc1	i
O=c1c2ccccc2nc(/C=C/c2ccc([N+](=O)[O-])o2)n1-c1ccccc1Cl	i
CCC(CC)C(=O)N1c2ccccc2Sc2ccccc21	3.0%
COc1c(Cl)cc(C(=O)NCc2cccnc2)cc1Cl	i
O=C(COc1ccc(S(=O)(=O)Nc2ccc(Cl)cc2)cc1)N1CCCCCC1	i
CCOc1ccc(N(C(C)C(=O)Nc2ccc(CC)cc2)S(C)(=O)=O)cc1 (stereo not drawn)	6.3%
CCOc1cc(C=C2C(=O)NC(=O)NC2=O)cc(I)c1OC(=O)c1ccco1	i
CC(Sc1ncn(-c2ccccc2)n1)C(=O)Nc1ccc(Cl)cc1 (stereo not drawn)	i
CCCc1nc2ccccc2n1CC(O)COc1ccc(Br)cc1 (stereo not drawn)	4.08µg/mL*
COc1ccc(S(=O)(=O)Nc2ccc(Nc3ccccc3)cc2)cc1	4.5%
CCN(C(=O)CSc1nc2ccccc2c(=O)n1C1CCCC1)c1cccc(C)c1	16.6%
O=C(CN1C(=O)c2cccc3cccc(c23)C1=O)N1CCN(c2ccccc2)CC1	1.1%
O=C(CSc1n[nH]c(-c2ccc(Cl)cc2)n1)Nc1ccccc1Cl	4.21µg/mL*
CCc1ccc(NC(=O)CSc2nnc(-c3ccc(Cl)cc3)n2C)cc1	i
OC(C#CCN1CCCCC1)(c1ccccc1)c1ccccc1	i
S=C(NCc1ccccc1)NC1CC1	i

Bioassay records as filed in PubChem.
